Six1-Eya2 inh: blocks human Six1 binding to Eya2 | AlphaScreen GST-Six1/His-Eya2 binding, biochemical; stronger effect = lower value; control for the full effect not named in the record | activity change, % (test concentration not listed) | hit rate 0.56% among 360,000; in the data active = activity change below about -65%; inconclusive = about -30% to -65%; inactive = above about -30%; also: % is scaled to controls: 0 for no effect and ±100 for the full control effect; compound concentration not given in the record
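AlphaScreen luminescence read after one hour at 37 °C in darkness. Pin-transferred compounds met GST-Six1 and His-Eya2 protein (5X stock 250 nM/500 nM) plus glutathione donor and Ni-chelate acceptor beads (5X, 50 ug/mL).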
TRPML1 ag: agonists of human TRPML1 channel; Q9GZU1; TRPML1-expressing cells, Ca2+ dye fluorescence, FDSS; host cell line not named in the record; reference of the full effect not given here; activation, % (concentration not given with the values); hit rate 0.12% among 410,000; in the data active = activation above about 50%; inconclusive = about 30% to 50%; inactive = below about 30%; also: 0% is about no effect; the text of the record puts the active cut at 80%
Target sequence (Q9GZU1 whole entry, looked up): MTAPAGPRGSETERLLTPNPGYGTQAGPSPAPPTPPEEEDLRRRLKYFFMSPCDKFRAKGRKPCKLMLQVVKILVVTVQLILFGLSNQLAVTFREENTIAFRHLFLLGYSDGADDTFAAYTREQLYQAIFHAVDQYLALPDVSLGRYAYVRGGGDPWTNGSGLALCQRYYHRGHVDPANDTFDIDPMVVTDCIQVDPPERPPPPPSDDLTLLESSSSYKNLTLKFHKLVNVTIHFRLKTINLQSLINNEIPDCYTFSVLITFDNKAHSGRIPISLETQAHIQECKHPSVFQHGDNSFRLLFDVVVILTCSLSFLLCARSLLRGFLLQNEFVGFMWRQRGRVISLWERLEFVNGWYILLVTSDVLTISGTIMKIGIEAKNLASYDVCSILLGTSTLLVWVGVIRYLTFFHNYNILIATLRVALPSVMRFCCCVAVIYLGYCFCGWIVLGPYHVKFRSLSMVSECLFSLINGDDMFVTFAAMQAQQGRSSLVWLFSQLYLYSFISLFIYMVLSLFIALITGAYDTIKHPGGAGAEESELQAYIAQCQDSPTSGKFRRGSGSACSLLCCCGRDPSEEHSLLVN
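Tet-induced TRPML1-DL cells, 1,500 per well, cultured overnight, were loaded with a no-wash Ca2+ dye for 45–90 min. Calcium fluorescence was recorded on the FDSS for 110 s after compound addition, before the EC80 agonist (4 uM 54-4) was added.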
TRPML1 inh: human mucolipin-1 channel inhibition; hit rate 0.02% among 390,000; Q9GZU1; TRPML1-inducible cells, Ca2+ dye fluorescence, FDSS; stronger effect = lower value; inhibition of EC80 agonist-evoked calcium signal; activity change, negative = inhibition, % (concentration not given with the values); in the data active means activity change below about -50%; inconclusive means about -30% to -50%; inactive means above about -30%;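 also: stimulus is agonist 54-4 at its EC80 concentration; % is scaled to controls: 0 for no effect and ±100 for the full control effect; compound concentration not given in the record; the text of the record puts the active cut at -80%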
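Tet-induced TRPML1-DL cells loaded with Ca8 no-wash calcium dye were read kinetically on FDSS. Compound addition was followed by EC80 agonist 54-4 (4 uM final); inhibition was read over 110 s.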
D2 potentiator: potentiates the human D2 dopamine receptor allosterically | P14416 | DiscoveRx D2 beta-arrestin cells, luminescence, 90 min; 100% = 57 uM dopamine signal | potentiation, % (no concentration beside the values) | hit rate 0.23% among 360,000 | AID 624464; active = potentiation of 50% or more; inconclusive = 30% to 50%; inactive = 30% or less;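 also: compound concentration not given in the record; tested on top of an EC20 dose of dopamine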
Target sequence (P14416 whole entry, looked up): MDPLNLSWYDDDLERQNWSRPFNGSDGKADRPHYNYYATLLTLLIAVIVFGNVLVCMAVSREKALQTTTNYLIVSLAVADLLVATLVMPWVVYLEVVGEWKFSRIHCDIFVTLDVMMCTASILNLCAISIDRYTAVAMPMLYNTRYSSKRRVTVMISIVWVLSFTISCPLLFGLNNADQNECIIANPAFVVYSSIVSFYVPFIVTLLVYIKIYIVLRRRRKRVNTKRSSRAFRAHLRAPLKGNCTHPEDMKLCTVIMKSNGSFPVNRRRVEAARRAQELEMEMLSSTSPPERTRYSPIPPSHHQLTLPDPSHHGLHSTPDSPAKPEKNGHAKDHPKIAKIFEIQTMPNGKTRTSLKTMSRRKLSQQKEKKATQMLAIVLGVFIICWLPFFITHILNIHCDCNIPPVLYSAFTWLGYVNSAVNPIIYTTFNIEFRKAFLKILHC
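PathHunter D2 cells, attached overnight at 37 deg C, received compound in DMSO plus dopamine at EC20 (50 nM final) for 90 min at 37 deg C. Beta-arrestin recruitment was read as luminescence after 1 h with detection reagent at ambient temperature.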
D2 ag: agonists of human D2 dopamine receptor (beta-arrestin); activation, % (test concentration not listed); hit rate 0.084% among 360,000; DiscoveRx PathHunter D2 beta-arrestin, luminescence, 90 min; 100% = 57 uM dopamine signal; P14416; in the data active = activation above about 40%; inconclusive = about 15% to 40%; inactive = below about 15%; also: compound concentration not given in the record; the text of the record calls up to 30% inactive
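DiscoveRx PathHunter D2 beta-arrestin cells (2,100/well) attached overnight, then compound-stimulated 90 min at 37 C in HBSS/10 mM HEPES/0.1% Tween-20 buffer; beta-galactosidase complementation read by luminescence after 1 h at ambient temperature. Dopamine 57 uM final (EC100) as control.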
PINK1 expr mod: PINK1 expression modulation; PINK1 immunofluorescence, high-content cytometry, 24 h; Potency, µM (doses to about 76.6 µM), for the others: top-dose activation (PINK1 increase), usual class: activators; hit rate 0.2% among 410,000; AID 624263; active = well fitted activation curve with a large enough effect; inconclusive = small, poorly fitted or top-dose-only effect; inactive = flat fitted curve, though single readings scatter; cell line not stated here;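 also: potency is read from the fitted curve at half-maximal effect; % of control where 0% means no effect; nearly all actives have a fitted effect of over 65% in size; a mitochondrial uncoupler was the plate control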
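Measures PINK1 amount and localization on or inside mitochondria by immunofluorescence. Stable cells get compounds at 5 concentrations for 24 hours before fixation and staining; CCCP controls included.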
* marks the source's active call; other numbers are inactive results; ? = inconclusive; / = not tested or not shown; [ ] = another dose, or the depositor's remark.

mol,TRPML1 ag,TRPML1 inh,D2 potentiator,D2 ag,PINK1 expr mod,Six1-Eya2 inh
Nc1cc(C(=O)OCC(=O)N2CCCC2)ccc1Cl,2.7,-7,6,-0.2,2.9%,0
COc1cccc(-n2c(=O)n(Cc3ccccc3)c(=O)c3[nH]cnc32)c1C,0.8,0,-3,-6.8,-0.3%,-2
O=C(NCCO)C(=O)NCC(c1ccc2c(c1)OCO2)N1CCOCC1 (stereo unspecified),0.4,-5,/,/,1.3%,/
CC(=O)c1cccc(NC(=O)CN2C(=O)COc3ccc(S(=O)(=O)N4CCOCC4)cc32)c1,4.1,25,-5,0.9,1.2%,-1
CC(=O)Nc1c(O)nc(SC/C=C/CSc2nc(O)c(NC(C)=O)c(=O)[nH]2)[nH]c1=O,-0.3,-10,-2,-1.4,2.4%,10
CCOc1ccc(C(=O)N2CCN(c3cccc(Cl)c3)CC2)cc1,1.9,18,-11,1.7,0.0%,-5
COc1cc(/C=C(\C(=O)O)c2ccc(S(=O)(=O)N3CCCC3)s2)ccc1OCCC(C)C,0.6,10,2,-1.6,5.3%,-3
CC1CCC(NC(=O)c2cc(Cl)nc3ccccc23)CC1 (stereo unspecified),-0.6,-7,-1,-3.3,2.0%,-1
CCc1ccc(OCC(=O)Nc2ccc(N3CCN(S(C)(=O)=O)CC3)cc2)cc1,-0.2,6,-3,2.3,0.9%,2
COc1cccc(C(=O)CC(C#N)c2ccc(F)cc2)c1 (stereo unspecified),3.5,-11,-6,1.9,-0.4%,-4
CN1CCN(CCCNC(=O)c2cnn(-c3ccc(F)cc3)c2-n2cccc2)CC1,1.7,1,/,/,-1.5%,/
COc1ccccc1-c1cc(C(F)(F)F)nc(N2CCCCC2)n1,-0.7,-2,-5,-1.1,4.9%[38.3 µM],52
Cc1cc(C(=O)N2CCN(S(=O)(=O)c3ccccc3F)CC2)c(C)o1,0.2,12,-2,2.2,-2.1%,-6
Cc1cc(C)c2oc(-c3ccc(C)c(NC(=O)/C=C/c4ccco4)c3)nc2c1,-0.4,-14,/,/,11%,/
COc1ccccc1OCC(=O)n1cc(C(=O)c2cc(Cl)cc(Cl)c2O)cn1,0.0,4,-16,-0.8,0.3%,-1
Cc1ccccc1NC1=C(Cl)C(=O)OC1OC(=O)c1ccccc1C (stereo unspecified),3.2,22,-9,-0.9,-0.7%,4
Cc1ccccc1OCC(=O)Nc1ccc2[nH]ncc2c1,-0.6,3,-4,-0.4,-0.6%,-8
O=C(c1ccc2c(=O)n(Cc3ccccc3Cl)c(=S)[nH]c2c1)N1CCCC1,0.6,17,-3,-1.1,4.9%,1
CCOC(=O)N1CCC(NC(=O)c2cc3sccc3n2CC)CC1,1.5,-1,-7,-1.1,-0.1%[38.3 µM],-2
O=C1C(Cc2cccc([N+](=O)[O-])c2)SC(=Nc2ccccc2)N1c1ccccc1 (stereo unspecified),1.9,-2,-12,-0.4,1.8%,-2
CCc1cccc(NC(=O)Nc2ccc3c(c2)N(C)C(=O)c2ccccc2S3)c1,-0.1,-5,/,/,29%,/
CN(CC1CCCN(CCc2cccc(C(F)(F)F)c2)C1)C(=O)c1ccc2nc[nH]c2c1 (stereo unspecified),-0.2,23,-31,-1.2,-0.4%,-7
CC(=O)Nc1nc(-c2ccc(Cl)cc2)nc(C)c1C(C)=O,0.4,-20,-4,0.1,1.1%,-1
CC(=O)C1=C(O)C(=O)N(c2cccnc2)C1c1cccc([N+](=O)[O-])c1 (stereo unspecified),0.7,12,-3,-4.8,-1.0%,1
O=C1CCCN1CCCNC(=S)Nc1ccc(F)c(Cl)c1,0.8,-28,-2,1.5,0.5%,4
COc1ccc(S(=O)(=O)NCc2cccnc2)c2ccccc12,-0.2,-11,3,1.0,1.6%,2
CC(C)c1ccccc1OCCCCN1CCCCC1,-0.6,-3,-29,-4.2,2.0%,1
CC(=O)N1CCN(C(=O)CC2OC(=O)c3ccccc32)CC1 (stereo unspecified),2.8,-9,-5,2.6,0.2%,-3
Cc1cc(C)n2nc(C(=O)Nc3cc(S(=O)(=O)N4CCCCC4)ccc3C)nc2n1,-0.3,-13,-6,-0.8,-0.1%,-12
CCCCCOCC1CC(C/C(C)=N/Nc2nc(-c3ccccc3)cs2)C(=O)O1 (stereo unspecified),-1.3,8,-25,-2.6,1.1%,-1
Cc1cc(=O)n2[nH]c(C(=O)O)nc2n1,-0.2,-13,5,1.5,1.5%,12
Nc1nnc(SCCN2C(=O)c3ccccc3S2(=O)=O)s1,0.0,8,-24,-4.1,-0.3%,-3
COc1ccccc1NC(=O)CCN1CCCCC1,0.9,-8,/,/,-0.4%,/
CCc1c(O)nc(SCC(=O)Nc2cc(C)on2)n(-c2ccccc2)c1=O,0.1,6,-8,-5.2,1.1%,-2
COc1ccc(C2CC(=O)C3=C(C2)Nc2ccccc2N(C(=O)CCC(=O)O)C3c2ccc(F)cc2)cc1 (stereo unspecified),1.3,-15,4,3.2,-1.0%,18
COc1ccc(CNC(=O)CN(C)Cc2ccc(C(C)(C)C)cc2)cc1,1.6,9,-12,-3.2,6.7%,0
CCOC(=O)[C@]12CCCC=C1N(Cc1ccc3c(c1)OCO3)C(=O)[C@H](CC(=O)N1CCCC1)C2,-0.9,/,/,/,2.5%,14
Cc1cccc(OCc2nc3ccccc3n2C)c1,/,/,-5,-1.9,1.1%,0
Cn1cc([C@@H]2C[C@H]3CN(Cc4cccc(Cl)c4)C(=O)[C@]34CCCN24)c(-c2ccccc2)n1,0.9,-1,-7,3.7,-0.6%,-1
C=CCn1c(C)cc(C2=NNC(=Nc3ccc(C)cc3)SC2)c1C,-0.2,10,-2,-1.9,0.3%,5

By substructure, those above containing two or more sulfur atoms.
mol,TRPML1 ag,TRPML1 inh,D2 potentiator,D2 ag,PINK1 expr mod,Six1-Eya2 inh
CC(=O)Nc1c(O)nc(SC/C=C/CSc2nc(O)c(NC(C)=O)c(=O)[nH]2)[nH]c1=O,-0.3,-10,-2,-1.4,2.4%,10
COc1cc(/C=C(\C(=O)O)c2ccc(S(=O)(=O)N3CCCC3)s2)ccc1OCCC(C)C,0.6,10,2,-1.6,5.3%,-3
Nc1nnc(SCCN2C(=O)c3ccccc3S2(=O)=O)s1,0.0,8,-24,-4.1,-0.3%,-3

Other results follow:
mol,TRPML1 ag,TRPML1 inh,D2 potentiator,D2 ag,PINK1 expr mod,Six1-Eya2 inh
O=[n+]1c2c(n([O-])c3ccccc31)CCC2,-0.5,3,3,1.6,0.2%,-1
O=c1oc2ccccc2c(NC2CCCCC2)c1NS(=O)(=O)c1ccc(Br)cc1,11,33,-22,-3.5,-0.4%,-10
CCCCN(C(=O)c1ccco1)C1CCS(=O)(=O)C1 (stereo unspecified),0.0,1,-2,8.7,-1.7%,-9
O=C(N=C1SCC(=O)N1c1ccccc1)c1ccco1,-0.3,-25,25,-0.8,0.8%,0
CN1C(=O)CC(N2CCC(C(N)=O)(N3CCCCC3)CC2)C1=O (stereo unspecified),0.0,-18,-8,-3.0,4.1%,0
COCCNC(=S)Nc1ccc(S(=O)(=O)Nc2ncccn2)cc1,3.3,-5,-5,-4.2,0.2%,5
CCN(CC)C(=O)C1CCCN(Cc2nc(-c3cccs3)no2)C1 (stereo unspecified),-0.3,12,-6,-0.6,-0.6%,2
O=C(CSc1nccc(=O)[nH]1)NC1CCCc2ccccc21 (stereo unspecified),-0.4,-14,-4,2.0,0.4%,8
CC(=O)Nc1ccc(CNc2nc(NCCN(C)C)nc3cc(-c4ccccc4)sc23)cc1,-0.4,/,-24,-1.9,-0.9%,-8
COc1cccc(C(=O)OCC(=O)c2c[nH]c3ccccc23)c1OC,2.4,14,6,2.5,0.7%,-20
CCOC(=O)C1=C(C)N=c2s/c(=C\c3ccc(OC(C)=O)c(OCC)c3)c(=O)n2C1/C=C/c1ccccc1 (stereo unspecified),8.7,-6,-15,-2.8,-2.2%,-3
Cc1[nH]c2ccccc2c1N=Nc1cc(C(=O)O)cc(C(=O)O)c1,-0.6,-5,-7,-6.4,-0.7%,-14
Cc1noc(C)c1S(=O)(=O)N1CCC(C(=O)NCCc2ccc(S(N)(=O)=O)cc2)CC1,2.0,23,-4,0.5,2.8%[38.3 µM],-1
O=C(CSC1=Nc2ccccc2N=C(c2ccc(F)cc2)C1)NCc1ccc(F)cc1,1.5,29,/,/,6.0%,/
Cn1nnnc1SCCCNCc1cc(Cl)ccc1OCc1ccccc1F,-0.1,20,/,/,0.0%,/
COc1cc(C2C(C#N)=C(N)Oc3n[nH]c(-c4cccnc4)c32)ccc1OCC(N)=O (stereo unspecified),0.7,-1,-8,-4.1,1.5%,1
COc1cc(Cl)ccc1OCc1cc(C(=O)NC(C)Cc2cnccn2)no1 (stereo unspecified),0.5,3,-9,-3.1,4.0%,0
CC(Nc1ccccc1)c1ccncc1 (stereo unspecified),-0.8,-14,-1,-2.5,4.5%,13
O=S(=O)(Nc1ncccn1)c1ccc(Nc2ncnc3ccccc23)cc1,4.2,-1,-8,0.0,-1.2%[38.3 µM],3
CS(=O)(=O)N(CC(=O)N1CCN(Cc2ccccc2)CC1)c1cccc([N+](=O)[O-])c1,-0.6,32,-4,4.3,0.7%,-2
CC(=O)COc1ccc2c(-c3ccccc3)cc(=O)oc2c1,0.4,-26,4,-6.4,-2.3%,-6
CS(C)(=O)=NS(=O)(=O)c1ccc(Cl)cc1,0.6,-3,-6,8.9,-0.7%,4
COCCNC(=O)CSC1=N/C(=C/c2ccc(Cl)c(Cl)c2)C(=O)N1c1ccccc1F,0.9,35,9,2.0,1.7%,2
N#Cc1ccc(NC2c3ccccc3CC2O)cc1 (stereo unspecified),1.5,11,0,3.2,-4.4%,12
O=C(Cc1cccc(NC(=O)C2CCN(C(=O)CCc3ccccc3)CC2)c1)Nc1cccc(C(=O)N2CCCC2)c1,2.2,-12,11,2.6,-0.6%,-4
CC1=NOC(=O)/C1=C/c1ccc2c(c1)OCO2,2.5,13,28,-4.7,-1.4%,3
Cc1ccccc1-n1c(O)cc(=O)[nH]c1=S,-0.9,-24,-1,-4.8,0.7%,3
Cn1nccc1C(=O)Nc1ccccc1C(=O)O,1.4,?,-11,-3.4,-0.3%,-24
CC(=O)Nc1ccc2cc3ccc(NC(C)=O)cc3nc2c1,3.5,19,-9,-12,2.1%,-10
Clc1ccc(CNCC2CCCO2)cc1 (stereo unspecified),0.2,10,-14,-1.8,0.6%,-3
Brc1ccccc1OCCCn1cnc2ccccc21,1.0,-6,-16,-2.2,-2.5%,-4
